Ecoli rRNA inh: inhibitors of bacterial rRNA selective over humanized ribosomes; E. coli WT GFP vs humanized-ribosome RFP mutants, fluorescence, 24 h; hits give low values; DMSO median 0, no signal -100; GFP signal change (wild-type ribosome), % (no concentration beside the values); hit rate 1.6% among 350,000; AID 720706;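 active = significant combined selectivity score with lowered wild-type GFP, culture density cut under 30%, mutant RFP and density less affected; inactive = any of these conditions unmet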; also: one replicate is shown; some compounds called inactive have numbers as strong as hits
FGF22 binding: binders of recombinant human FGF22 by thermal shift; calls only at 9.99 µM; AID 651658; hit rate 1.5% among 340,000; SYPRO orange fluorescence; percent of sucrose octasulfate shift, DMSO zero;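 active = melting point raised past a set limit in the mean and every replicate; three in four hits are not shown here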
Target sequence (Q9HCT0 whole entry, looked up): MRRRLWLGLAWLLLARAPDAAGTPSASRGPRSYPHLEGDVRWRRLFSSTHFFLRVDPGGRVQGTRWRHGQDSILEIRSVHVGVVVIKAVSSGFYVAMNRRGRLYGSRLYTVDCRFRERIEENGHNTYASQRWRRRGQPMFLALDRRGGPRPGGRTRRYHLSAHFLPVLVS
Ecoli rRNA inh OD600: recorded beside Ecoli rRNA inh, whose call it bears; OD600 change, %; measured here: OD600 growth;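 optical density of the mix in the first replicate; 0 = DMSO median and -100 = no signal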
Ecoli rRNA inh RFP: further read-out of Ecoli rRNA inh, marked with its call; RFP signal change, %; measured here: RFP humanized mutant strains;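 first replicate; 0 = DMSO median and -100 = no signal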
The depositor's hits bear a star; i = inactive. Some of the compounds tested. The share of hits here may be higher or lower than overall.

SMILES	Ecoli rRNA inh	Ecoli rRNA inh OD600	Ecoli rRNA inh RFP	FGF22 binding
O=C(CC1CCCC1)N[C@H](C(=O)N1CCC[C@H]1C(=O)NCc1ccccc1)c1ccccc1	0.6	-6.0	2.2	i
CNC(=O)C[C@H]1CC[C@H]2[C@H](COc3ccc(NC(=O)c4ccccc4F)cc3C(=O)N2C)O1	-2.5	2.5	-1.2	i
Cc1noc(C)c1S(=O)(=O)Nc1ccc2c(c1)CC(=O)N([C@H](C)CO)C[C@H](C)[C@@H](CN(C)Cc1ccc(Oc3ccccc3)cc1)O2	3.3	-17.6	8.1	i
C[C@H](O)[C@@H]1CN2CCc3c([nH]c4c(-c5ccccc5)cccc34)[C@@H]2C[C@@H]1N(C)C(=O)Nc1ccccc1	-33.9	-45.5	4.8	i
COc1ccc(S(=O)(=O)N(C)C[C@@H]2Oc3ccc(NC(=O)Nc4ccc(F)cc4)cc3CC(=O)N([C@@H](C)CO)C[C@H]2C)cc1	-2.1	-3.3	0.5	i
C[C@H]1CN([C@@H](C)CO)C(=O)c2cc(Br)cnc2O[C@@H]1CN(C)CC1CCOCC1	2.4	1.0	-1.6	i
C[C@@H]1CN([C@@H](C)CO)C(=O)Cc2cc(NS(C)(=O)=O)ccc2O[C@@H]1CN(C)Cc1ccc(C(F)(F)F)cc1	-5.8	-6.8	3.8	i
O=C(C[C@H]1C[C@H]2c3cc(NC(=O)Nc4ccc(F)cc4)ccc3O[C@H]2[C@@H](CO)O1)NCC1CC1	-1.3	0.4	2.1	i
C[C@H](CO)N1C[C@H](C)[C@H](CN(C)S(=O)(=O)c2cn(C)cn2)Oc2ccc(NC(=O)Nc3ccc4c(c3)OCO4)cc2CC1=O	0.6	4.8	0.5	i
COC(=O)C[C@@H]1CC[C@H]2[C@@H](COC[C@@H](O)CN2S(=O)(=O)c2cn(C)cn2)O1	1.5	-6.1	-0.2	i
C[C@@H]1CCCCO[C@H](CN(C)S(=O)(=O)c2ccc(F)cc2)[C@@H](C)CN([C@@H](C)CO)C(=O)c2cc(NC(=O)Nc3ccc(F)cc3)ccc2O1	2.4	4.0	-0.2	i
CN1c2ccc(-c3ccc(F)cc3)cc2[C@@H]2[C@@H](CCN2C(=O)CC2CC2)[C@@H]1CO	-55.6	-74.2	-19.5	i
C[C@@H]1CN(C(=O)OC(C)(C)C)CCN1c1ccc(N2CC[C@H](O)C2)c(C#N)c1	-11.6	-10.2	4.7	i
C[C@@H]1CN([C@H](C)CO)C(=O)c2cc(NC(=O)Nc3ccc4c(c3)OCO4)ccc2O[C@@H]1CN(C)C(=O)Nc1ccccc1	1.8	4.6	-0.2	i
O=C(CCc1c[nH]c2ccccc12)Nc1ccc(Nc2ccncc2)cc1	9.2	5.0	1.6	i
CC1(C(=O)NCc2ccccc2)CSCC(=O)N1Cc1ccco1 (centres undefined)	12.0	14.1	-2.1	i
CC(C)C(=O)Nc1ccc2c(c1)C(=O)N(C)[C@H]1CC[C@@H](CC(=O)NCc3ccccc3F)O[C@@H]1CO2	-1.1	-3.1	2.2	i
N#Cc1cccc(-c2ccc3c(c2)[C@H]2[C@H](CCN2Cc2cncnc2)[C@H](CO)N3)c1	1.2	1.6	-8.1	i
COc1ccccc1S(=O)(=O)N1CC[C@@H]2[C@H](CO)N(C)c3ccc(C#Cc4cccc(F)c4)cc3[C@@H]21	-4.5	19.7	1.0	i
CNC(=O)C[C@@H]1CC[C@H]2[C@@H](COc3ccc(NC(=O)c4cc(C)on4)cc3C(=O)N2C)O1	0.0	5.8	-4.0	i
C[C@@H]1CN([C@H](C)CO)C(=O)c2cc(C#CCC3CCCC3)cnc2O[C@H]1CN(C)S(=O)(=O)c1cccs1	-0.7	-2.8	1.6	i
CC(=O)Nc1ccc2c(c1)C(=O)N(C)[C@H]1CC[C@@H](CC(=O)N3CCc4ccccc4C3)O[C@H]1CO2	-2.2	1.4	1.3	i
COc1ccc(S(=O)(=O)Nc2ccc3c(c2)C(=O)N([C@H](C)CO)C[C@@H](C)[C@H](CN(C)S(=O)(=O)c2ccc(Cl)cc2)O3)cc1	-4.8	-10.9	-0.4	i
CCC(=O)N1C[C@@H](O)COC[C@@H]2O[C@H](CC(=O)NCc3cc(F)cc(F)c3)CC[C@H]21	3.3	7.8	-3.2	i
COc1ccc(-c2ccc3c(c2)[C@H]2[C@H](CCN2C(=O)C2CCOCC2)[C@H](CO)N3C)cc1	-4.4	-4.8	-1.6	i

Some of these compounds in order of heavy-atom count, rising.
SMILES	Ecoli rRNA inh	Ecoli rRNA inh OD600	Ecoli rRNA inh RFP	FGF22 binding
COC(=O)C[C@@H]1CC[C@H]2[C@@H](COC[C@@H](O)CN2S(=O)(=O)c2cn(C)cn2)O1	1.5	-6.1	-0.2	i
CNC(=O)C[C@H]1CC[C@H]2[C@H](COc3ccc(NC(=O)c4ccccc4F)cc3C(=O)N2C)O1	-2.5	2.5	-1.2	i
CC(C)C(=O)Nc1ccc2c(c1)C(=O)N(C)[C@H]1CC[C@@H](CC(=O)NCc3ccccc3F)O[C@@H]1CO2	-1.1	-3.1	2.2	i
C[C@@H]1CN([C@H](C)CO)C(=O)c2cc(C#CCC3CCCC3)cnc2O[C@H]1CN(C)S(=O)(=O)c1cccs1	-0.7	-2.8	1.6	i
C[C@@H]1CN([C@H](C)CO)C(=O)c2cc(NC(=O)Nc3ccc4c(c3)OCO4)ccc2O[C@@H]1CN(C)C(=O)Nc1ccccc1	1.8	4.6	-0.2	i

The listing continues:
SMILES	Ecoli rRNA inh	Ecoli rRNA inh OD600	Ecoli rRNA inh RFP	FGF22 binding
CNC[C@@H]1OCCCC[C@@H](C)Oc2ccc(NS(=O)(=O)c3cn(C)cn3)cc2C(=O)N([C@@H](C)CO)C[C@@H]1C	6.0	7.7	-5.7	i
CN1c2ccc(-c3ccccc3F)cc2[C@H]2[C@H](CCN2S(=O)(=O)c2ccc(F)cc2)[C@@H]1CO	-1.3	-13.4	4.1	i
Cc1noc(C)c1S(=O)(=O)Nc1ccc2c(c1)C(=O)N([C@H](C)CO)C[C@@H](C)[C@H](CN(C)C(=O)CCCN(C)C)OCCCC[C@@H](C)O2	1.7	9.0	0.0	i
C[C@H](CO)N1C[C@H](C)[C@H](CN(C)C(=O)NC2CCCCC2)Oc2ccc(NS(=O)(=O)c3cn(C)cn3)cc2CC1=O	1.5	7.6	-0.7	i
CC(C)C#Cc1cnc2c(c1)C(=O)N([C@H](C)CO)C[C@H](C)[C@H](CN(C)Cc1ccccn1)O2	5.3	-0.5	4.6	i
C[C@@H]1CN([C@H](C)CO)C(=O)Cc2cc(NC(=O)CCCCCC(=O)Nc3ccccc3N)ccc2O[C@@H]1CN(C)S(=O)(=O)c1cccs1	-2.0	-4.9	-1.7	i
C[C@@H]1CCCCO[C@H](CN(C)S(=O)(=O)c2ccc(F)cc2)[C@H](C)CN([C@@H](C)CO)C(=O)c2cc(NC(=O)Cc3ccccc3)ccc2O1	-0.1	-3.8	-0.2	i
C#CCN1C(=O)[C@]2(OCCC=C[C@H]2C)c2ccccc21	18.1	24.9	6.3	i
CN(C)C(=O)C[C@@H]1CC[C@@H]2[C@H](COc3ccc(NC(=O)C4CCCCC4)cc3C(=O)N2C)O1	3.5	4.5	-3.3	i
COc1ccc(NC(=O)Nc2cccc3c2O[C@@H](CN(C)C(=O)Nc2ccc(C(F)(F)F)cc2)[C@H](C)CN([C@@H](C)CO)C3=O)cc1	-5.2	-0.9	0.4	i
CN1C(=O)c2cc(NC(=O)Nc3ccccc3F)ccc2OC[C@@H]2O[C@H](CC(=O)O)CC[C@@H]21	-0.5	-3.6	-1.2	i
O=C(C[C@H]1CC[C@@H]2[C@H](COC[C@@H](O)CN2Cc2cccc(-c3ccncc3)c2)O1)N1CCOCC1	-1.0	0.4	-4.8	i
Cc1noc(C)c1S(=O)(=O)N(C)C[C@@H]1Oc2ccc(NC(=O)Nc3ccc(C(F)(F)F)cc3)cc2CC(=O)N([C@H](C)CO)C[C@@H]1C	3.2	-1.7	0.1	i
Cc1noc(C)c1NC(=O)Nc1ccc2c(c1)CC(=O)N([C@H](C)CO)C[C@@H](C)[C@H](CN(C)Cc1ccc(Oc3ccccc3)cc1)O2	-5.1	-19.8	2.5	i
COC(=O)C1=C(C)N(Cc2ccc(C(F)(F)F)cc2)C(=NCC2CC2)NC1c1ccccc1C(F)(F)F (centres undefined)	-44.1	-77.1	-16.9	i
CN(C(=O)CCc1cn(C)c2ccccc12)c1ccc(Oc2cccnc2)cc1	-22.8	-43.2	-5.7	i
CCOC(=O)N[C@H](C(=O)N1CCC[C@H]1C(=O)NCCc1ccccc1Cl)C1CCCCC1	-4.7	-4.1	6.9	i
COc1ccc(NC(=O)Nc2cccc3c2O[C@H](CN(C)C(=O)Nc2ccc(C(F)(F)F)cc2)[C@H](C)CN([C@H](C)CO)C3=O)cc1	-7.7	-8.8	3.3	i
COc1ccc2c3c(n(C)c2c1)[C@H](CO)N(CC1CC1)CC31CN(C(C)=O)C1	4.5	8.2	-2.8	i
CNC(=O)C[C@@H]1CC[C@@H]2[C@@H](COc3ccc(NC(=O)Nc4cccc(F)c4)cc3C(=O)N2C)O1	-1.0	2.1	-0.4	i
O=C(NCc1ccccc1)C1C(c2ccc3c(c2)OCO3)=Nc2ccccc2N1C(=O)c1cccc(C(F)(F)F)c1 (centres undefined)	7.6	0.9	-1.8	i
C[C@@H]1CCCCO[C@H](CN(C)S(=O)(=O)c2ccc(Cl)cc2)[C@H](C)CN([C@@H](C)CO)C(=O)c2cc(NC(=O)Nc3ccc(C(F)(F)F)cc3)ccc2O1	2.5	15.8	-0.3	i
C[C@@H]1CCCCO[C@H](CN(C)CC2CCCCC2)[C@@H](C)CN([C@H](C)CO)C(=O)c2cc(NC(=O)NC3CCCCC3)ccc2O1	7.1	7.2	-1.8	i
C[C@@H]1CCCCO[C@H](CN(C)C(=O)Nc2ccccc2)[C@@H](C)CN([C@@H](C)CO)C(=O)c2cc(NS(=O)(=O)c3ccc(F)cc3)ccc2O1	0.1	-0.9	2.1	i
Cc1cccc(C)c1N1C(=O)c2ccccc2NC(=O)C1C(=O)Nc1ccc2c(c1)OCCO2 (centres undefined)	-3.8	7.2	4.1	i

New compounds follow:
SMILES	Ecoli rRNA inh	Ecoli rRNA inh OD600	Ecoli rRNA inh RFP	FGF22 binding
C[C@@H]1CN([C@H](C)CO)C(=O)c2cc(NC(=O)CCN3CCOCC3)ccc2O[C@H]1CN(C)CC1CCCCC1	2.1	10.3	0.1	i
CNC(=O)C[C@H]1CC[C@H]2[C@@H](COC[C@H](O)CN2C(=O)Nc2ccc3c(c2)OCO3)O1	1.6	7.4	-2.5	i
CC(C)[C@H](N)C(=O)N[C@H](C(=O)N1CCC2CCN(Cc3ccccc3)CC21)C(C)C (some centres undefined)	17.8	16.8	2.2	i
CCN=C1NC(c2ccc(C(F)(F)F)cc2)C(C(=O)OC)=C(C)N1Cc1ccccc1C(F)(F)F (centres undefined)	-42.8	-77.3	-14.9	i
COc1cccc(NC(=O)N(C)C[C@H]2Oc3cc(C#Cc4ccccc4)ccc3S(=O)(=O)N([C@@H](C)CO)C[C@@H]2C)c1	0.4	4.1	0.5	i
C[C@H]1CN([C@@H](C)CO)C(=O)c2cc(C#Cc3cccnc3)cnc2O[C@H]1CN(C)Cc1ccncc1	5.8	8.0	-2.7	i
CC(=O)Nc1ccc2c(c1)C(=O)N(C)[C@H]1CC[C@H](CC(=O)Nc3ccc(C)cc3)O[C@@H]1CO2	-6.7	0.2	0.8	i
Cc1cccc(C)c1NC(=O)C(CCc1ccccc1)n1c(=O)c(-c2ccccc2)nc2ccccc21 (centres undefined)	3.6	4.0	4.1	i
CCCNC(=O)C[C@H]1C[C@@H]2c3cc(NC(=O)CN(C)C)ccc3O[C@@H]2[C@@H](CO)O1	0.1	8.7	-2.8	i
C[C@@H]1CN([C@@H](C)CO)C(=O)Cc2cc(NS(C)(=O)=O)ccc2O[C@@H]1CN(C)S(=O)(=O)c1cn(C)cn1	2.3	7.9	0.0	i
COC(=O)C1=C(C)N(Cc2cccc(C(F)(F)F)c2)C(=NCc2ccc3c(c2)OCO3)NC1c1cccc(F)c1 (centres undefined)	-45.0	-76.0	-18.1	i
CN(C)C(=O)c1cccc(-c2ccc3c(c2)[C@@H]2[C@@H](CCN2C(=O)c2ccc4c(c2)OCO4)[C@H](CO)N3)c1	-3.0	5.2	2.7	i
Cc1cccc(C)c1N1C(=O)c2ccccc2NC(=O)C1C(=O)NCC(C)C (centres undefined)	7.3	-4.3	1.0	i
Cc1ccccc1C(=O)N[C@H](C(=O)N1CCC[C@H]1C(=O)NCc1ccccc1)c1ccccc1	-1.7	-10.0	4.2	i
COCc1cc(N2CCN(C(=O)OC(C)(C)C)C[C@H]2C)ccc1N1C[C@@H](C)O[C@@H](C)C1	0.1	-7.4	2.8	i
C[C@@H]1CCCCO[C@H](CN(C)S(C)(=O)=O)[C@@H](C)CN([C@@H](C)CO)C(=O)c2cc(NC(=O)c3ccncc3)ccc2O1	3.0	3.2	-3.2	i
CCC(=O)Nc1ccc2c(c1)C(=O)N(C)C[C@H](OC)[C@H](C)CN(Cc1cccnc1)[C@@H](C)CO2	2.0	-3.6	-1.6	i
CO[C@H]1/C=C/O[C@@]2(C)Oc3c(C)c(O)c4c(O)c(c5c(c4c3C2=O)NC2(CCN(CC(C)C)CC2)N=5)=NC(=O)/C(C)=C\C=C\[C@H](C)[C@H](O)[C@@H](C)[C@@H](O)[C@@H](C)[C@H](OC(C)=O)[C@@H]1C	-58.5	-80.6	-17.8	i
CN(C)C(=O)c1cccc(-c2ccc(C3[C@H]4CNC[C@@H]3N4Cc3ccccc3C(F)(F)F)cc2)c1 (some centres undefined)	1.2	-2.8	3.2	i
